# Sa growth 42C: S. aureus growth inhibition; relative growth, % (test concentration not listed); S. aureus RN4220 growth, OD600, 20 h, 42 °C; stronger effect = lower value; 0.53% of 170,000 active;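 active = growth at 42 °C up to 50% and 20 or more points under that at 30 °C, or under 10% at both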;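 note: 300 nL library stock went into each well; scaled to the means of positive and negative controls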
# GIV Gai3 FP: blocks GIV peptide binding to rat Galpha-i3; Galpha-i3/FITC-GIV peptide fluorescence polarization, 90 min; stronger effect = lower value; scaled: aluminum fluoride 0%, vehicle 100%; percent of control (FP), % (test concentration not listed); 0.42% of 210,000 active; AID 1224905;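 active = replicate mean at 85% of control or lower, very high polarization wells dropped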;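 note: wells of about 15 µL received 100 nL stock; the first replicate is given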
# Target sequence (P08753 whole entry, looked up): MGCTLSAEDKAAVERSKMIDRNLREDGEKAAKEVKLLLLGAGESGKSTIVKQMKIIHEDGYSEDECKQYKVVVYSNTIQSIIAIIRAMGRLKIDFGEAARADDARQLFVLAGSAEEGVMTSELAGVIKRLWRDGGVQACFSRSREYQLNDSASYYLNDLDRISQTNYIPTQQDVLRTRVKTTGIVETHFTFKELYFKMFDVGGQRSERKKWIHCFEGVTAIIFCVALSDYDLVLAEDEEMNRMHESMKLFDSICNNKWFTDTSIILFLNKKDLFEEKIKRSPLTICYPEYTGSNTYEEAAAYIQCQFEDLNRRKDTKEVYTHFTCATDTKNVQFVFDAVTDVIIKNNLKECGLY
# HCMV UL50-53 inh: inhibitors of HCMV UL50-UL53 nuclear egress complex interaction. HTRF UL50-UL53 interaction, normalized percent inhibition. inhibition, % (concentration not given with the values). 0.15% of 190,000 active;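 active = both replicates at 50% or more, plus weaker picks with an unusually low signal ratio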;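 note: stock transfer was 100 nL into about 20 µL; 0% = negative control wells and 100% = wells with untagged competitor protein; inactives centre near -12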
# Sa growth 42C second temp: second read-out of Sa growth 42C, no call of its own (marks repeat the call); relative growth, %; measured here: growth at 30 °C;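 optical density after 20 h as mean of two plates; 100% = untreated growth and lower means inhibition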
# * hit, by the source's call; . = no result given; & = joins results of further samples. The order is random. About 0.8% of those tested had a hit in this group.
# Sequence of screens: Sa growth 42C | Sa growth 42C second temp | GIV Gai3 FP | HCMV UL50-53 inh
- Cn1c(/C(C#N)=C(\O)CN2C(=O)CCC2=O)nc2ccccc21
    90 | 82 | 96 | -26
- COc1ccc(C2Nc3ccccc3-c3cc(C)nn32)cc1OC (stereo not drawn)
    110 | 92 | 98 | .
- COc1ccc(CNC(=O)c2cccn2-c2nnc(N3CCCCC3)s2)c(OC)c1
    111 | 89 | 99 | .
- Cc1nc2ccccc2n(Cc2ccc(C(=O)NCc3ccccn3)cc2)c1=O
    . | . | 109 | -34
- CC(C)CCNC(=O)c1ccc2c(c1)C(=O)c1ccccc1-2
    86 | 89 | 105 | -52
- COc1ccc(-c2oc(NC(=O)Cc3ccc(OC)c(OC)c3)c(C#N)c2-c2ccc(OC)cc2)cc1
    121 | 94 | 104 | 8
- Cc1ccc2cc(CCNC(=O)C3CCCCC3)c(=O)[nH]c2c1
    82 | 86 | 101 | -37
- Cc1nc(N2CCCCC2C)c2c(C)c(C(=O)N3CCN(c4ccccc4F)CC3)sc2n1 (stereo not drawn)
    . | . | 93 | -10
- Cc1cc(C)n(CC(=O)Nc2ccc(F)cc2)c(=O)c1S(=O)(=O)c1ccc(Br)cc1
    . | . | 102 | -20
- CN(CC(=O)Nc1ccccc1Cl)C1CCS(=O)(=O)C1 (stereo not drawn)
    96 | 85 | . | -11

# In a second layout: two of the compounds above
CC(C)CCNC(=O)c1ccc2c(c1)C(=O)c1ccccc1-2
  Sa growth 42C = 86
  Sa growth 42C second temp = 89
  GIV Gai3 FP = 105
  HCMV UL50-53 inh = -52
Cc1nc(N2CCCCC2C)c2c(C)c(C(=O)N3CCN(c4ccccc4F)CC3)sc2n1 (stereo not drawn)
  Sa growth 42C = .
  Sa growth 42C second temp = .
  GIV Gai3 FP = 93
  HCMV UL50-53 inh = -10

# Next records follow:
# Sequence of screens: Sa growth 42C | Sa growth 42C second temp | GIV Gai3 FP | HCMV UL50-53 inh
- Cc1cc2c(cc3c(SCC(=O)Nc4ccc(Cl)cc4F)nncn32)o1
    112 | 69 | 104 | .
- O=C(CSc1nc2nc[nH]c2c(=O)[nH]1)NC1CCCCC1
    . | . | 100 | -16
- COc1ccc2c(c1)NC1(CCN(S(=O)(=O)c3cc(Cl)ccc3OC)CC1)c1cccn1-2
    . | . | 102 | -15
- NC(=O)C1CCCN(CC(=O)N(Cc2cccs2)c2ccc3c(c2)OCCO3)C1 (stereo not drawn)
    78 | 100 | . | -36
- Cc1cc(C)c(NC(=O)CSc2nc3ccncc3[nH]2)c(C)c1
    101 | 92 | 102 | 7
- CCc1ccc(NC(=O)C2Sc3nnc(CC)n3NC2c2ccc(Cl)cc2)cc1 (stereo not drawn)
    . | . | 107 | -11
- COc1ccc(CNc2nc(-c3cccnc3)nn2C(=O)C2CC2)cc1OC
    83 | 84 | 99 | .
- Cc1cc(C)c2c(NC(=O)c3ccccc3Cl)c(C(=O)Nc3ccc(C)c(C)c3)sc2n1
    94 | 90 | 102 | -50
- O=C(CSCc1ccccc1)Nc1nnc(Cc2ccccc2)s1
    90 | 88 | . | 2
- CN(CCNC(=O)C1CC(=O)N(C2CCCC2)C1)Cc1ccccc1 (stereo not drawn)
    88 | 80 | 105 | 0
- CCC(C)N(C(=O)CSc1nc(NC)c2ccccc2n1)C1CCS(=O)(=O)C1 (stereo not drawn)
    84 | 94 | . | -12
- Cc1cc(=O)n2[nH]c(CN(C(=O)C(C)C)c3ccccc3)nc2n1
    . | . | 106 | -34
- O=C(Nc1cc2ccccc2cn1)c1cccc2c1OCCCO2
    102 | 52 | 96 | -3
- O=C(O)c1cnc(N2CCC(Cc3ccccc3)CC2)c(NS(=O)(=O)c2ccccc2)c1
    . | . | 99 | -23
- COC(=O)C1=CN(c2ccc(F)cc2)C=C(C(=O)OC)C1c1ccc(OC)c(O)c1
    98 | 96 | 99 | -3
- O=C(CN1C(=O)CSc2ncccc21)NC1CCCC1
    94 | 90 | 99&101 | 3&-6
- CCCCNc1cc(C)nc2c(C)c(-c3ccc(OC)c(OC)c3)nn12
    . | . | 108 | -28
- CCn1ccc(C(=O)Nc2ccc(Cl)cn2)n1
    101 | 97 | 101 | 5
- CCc1c(C)nc2nc(NCc3ccccc3)[nH]n2c1=O
    . | . | 100 | -16
- CC(=O)NCc1nc(-c2ccccc2)no1
    90 | 89 | 107 | -17
- Cc1cccc(NC(=O)c2cc3c(=O)n4ccccc4nc3n2C)c1C
    98 | 82 | 101 | -22
- Fc1ccc(-c2noc(CSc3ccc(-c4ccc(Br)cc4)nn3)n2)cc1
    . | . | 104 | -12
- O=C(CSC1=NCCS1)NC1Cc2ccccc2C1
    108 | 93 | 101 | 4
- O=C(Nc1ccc2c(c1)OCCO2)c1ccc2nsnc2c1
    84 | 84 | 98 | -44
- C=CCNC(=S)N1CCN(CCN=CC2=C(O)CC(c3ccccc3)CC2=O)CC1 (stereo not drawn)
    96 | 86 | 110 | 2
- O=C(O)c1cnc(N2CCC(N3CCCCC3)CC2)c(NS(=O)(=O)c2ccc(F)c(F)c2)c1
    . | . | 98 | -36
- Cc1nnc(Nc2ccc(S(N)(=O)=O)cc2)c2ccccc12
    91 | 79 | 101 | -15
- CCOC(=O)c1ccccc1NC(=O)c1nn(-c2ccc(C)cc2)c(=O)cc1OC
    . | . | 102 | -18
- CN1CCN(S(=O)(=O)c2ccc3c(c2)CCN3C(=O)CCC(=O)N2CCOCC2)CC1
    . | . | 94 | -4
- Cc1ccccc1NC(=O)c1c(C)oc2ccc(O)c(CN(C)Cc3ccccc3)c12
    74 | 64 | 110 | 18
- CCc1ccc(S(=O)(=O)c2cn(CC(=O)Nc3ccc(C)cc3)c3ccccc3c2=O)cc1
    105 | 77 | 106 | -33
- CCOC(=O)c1c(S(=O)(=O)NCC(=O)Nc2cccc(CC)c2)c(C)n(C)c1C
    96 | 85 | 106 | .
- Cc1ccc2nc(NCCCNC(=O)c3cnccn3)c(C#N)cc2c1
    99 | 77 | 100 | -5
- CCOc1ccc(S(=O)(=O)N2CCN(C3CC(=O)N(Cc4ccccc4)C3=O)CC2)cc1 (stereo not drawn)
    94 | 81 | . | -22
- Cc1cccc2cc3c(nc12)N(S(=O)(=O)c1ccc2c(c1)OCCO2)CC3
    . | . | 105 | 2
- COC(=O)C1CSCC/C1=N\Nc1ccc(Cl)cc1Cl (stereo not drawn)
    84 | 78 | 102 | -26
- CCN1CCc2c(sc(NC(=O)c3ccc(S(=O)(=O)N4CCCC4)cc3)c2C(N)=O)C1
    99 | 84 | 281 | -59
- CCn1nc(-c2ccccc2)c(-c2ccccc2)c(C(=O)OCCOC)c1=O
    96 | 88 | 102 | -21
- Cc1ccc(N2CCC(=O)N2)cc1
    104 | 95 | 101 | -20
- CCc1ccc(NC(=O)CN2C(=O)CCSc3ccc(S(=O)(=O)N4CCCC4)cc32)cc1
    86 | 91 | 101 | .
- Cc1ccc2c(c1)-c1c(cnn1CC(=O)NCC1CCCO1)CO2 (stereo not drawn)
    105 | 87 | 105 | -21
- Cc1ccccc1-c1nnc(CN2CCN(c3cc(Cl)ccc3C)CC2)o1
    113 | 98 | 107 | -13
- CN1CCN(c2nc(-c3ccc(O)cc3O)cs2)CC1
    106 | 83 | . | -19
- CCOc1cc2c(cc1OCC)C(CC(=O)O)N(C(=O)Nc1ccc(Br)c(C)c1)CC2 (stereo not drawn)
    96 | 78 | 106 | .
- CC(C)S(=O)(=O)c1csc(C(=O)OCC(=O)c2ccc(Cl)cc2)c1N
    112 | 87 | 106 | -3
- CCN(CC)C(=O)C1CC(=O)OC1(C)C (stereo not drawn)
    86 | 94 | . | 6
- Cc1cc(C)c(NC(=O)CSc2ccc(-c3sc(-c4ccccc4)nc3C)nn2)c(C)c1
    90 | 82 | 104 | .
- Cc1nnc(NCCCN2CCOCC2)c2ccccc12
    87 | 81 | . | -32
- CCn1cc(C(=O)OCC(=O)Nc2cccc(C(C)=O)c2)c(=O)c2ccc(C)nc21
    88 | 91 | 104 | 7
- COc1ccc(NC(=O)CN2C(=O)C(c3ccc(C)cc3)=NC23CCCCCC3)cc1Cl
    102 | 89 | 104 | -27

# Next structures follow:
# Sequence of screens: Sa growth 42C | Sa growth 42C second temp | GIV Gai3 FP | HCMV UL50-53 inh
- O=c1[nH]c(C2CCCN(S(=O)(=O)c3ccccc3Cl)C2)nc2c1nnn2Cc1ccc(OC(F)(F)F)cc1 (stereo not drawn)
    106 | 94 | 102 | -24
- CCOc1ccc(NC(C)C(=O)NC2(C#N)CCCCC2)cc1 (stereo not drawn)
    85 | 105 | . | -12
- O=C(NCSc1nc2ccccc2s1)C(F)(F)F
    94 | 80 | . | -16
- CC1CC(C)CN(c2cc(=O)n(Cc3ccc(F)cc3)c(=O)[nH]2)C1 (stereo not drawn)
    97 | 89 | 102 | -1
- Cc1ccc(C(C)C)c(OCC(=O)NCCC23CC4CC(CC(C4)C2)C3)c1
    98 | 91 | 103 | .
- Cc1ccc(NC(=O)CS(=O)(=O)c2nc(-c3ccc(C)cc3)cn2-c2ccc(C)cc2)cc1
    106 | 86 | 101 | -4
- COC(=O)c1ccc(NC(=O)/C(=C\c2ccco2)NC(=O)c2ccccc2OC)cc1
    90 | 69 | 103 | 7
- CC(=O)c1cc(-c2ccccc2)n(CCC(=O)Nc2nc3c(C)cccc3s2)c1C
    113 | 74 | 96 | .
- COc1cc(N)c(Cl)cc1C(=O)O
    82 | 103 | . | 3
- Nc1nc(COC(=O)c2ccc(S(=O)(=O)C(F)F)cc2)nc(Nc2ccccc2)n1
    78 | 91 | . | -23
- CCOC(=O)CCc1c(C)nc2nc(CNc3ccc(Cl)cc3)[nH]n2c1=O
    . | . | 103 | -26
- Cn1c(=NC(=O)C2CCCCN2S(=O)(=O)c2cccc3nsnc23)sc2ccccc21 (stereo not drawn)
    87 | 98 | . | -48
- CCN1CCN(CCCNC(=O)C2CCCN(C(=O)c3[nH]c(C)c(C(=O)OC(C)C)c3C)C2)CC1 (stereo not drawn)
    . | . | 99 | -18
- CCCCSCCCNC(=O)C1CCN(Cc2nc(-c3cccc(Br)c3)oc2C)CC1
    107 | 83 | 104 | -4
- CN1CCOc2cc(S(=O)(=O)NCc3csc(-c4cccs4)n3)ccc21
    102 | 83 | 103 | -20
- COc1ccc(C(c2nnnn2C2CCCC2)N2CCN(C(=O)c3ccco3)CC2)cc1OC (stereo not drawn)
    99 | 100 | 103 | -12
- COc1ccc(C2Nc3ccccc3C(=O)N2c2ccc(C)cc2)cc1Cn1cc([N+](=O)[O-])cn1 (stereo not drawn)
    . | . | 104 | -21
- O=C(NCc1ccc(F)cc1)c1nccn1Cc1ccc(Cl)cc1
    . | . | 103 | -14
- CCOC(=O)c1[nH]c(C)c(S(=O)(=O)Nc2ccc(S(N)(=O)=O)cc2)c1C
    . | . | 104 | -23
- O=C(Nc1ccc2c(c1)N(C1CCCC1)C(=O)c1ccccc1S2)c1ccccc1F
    114 | 111 | 108 | .

# Seven compounds drawn at random from those above, as already listed:
# Sequence of screens: Sa growth 42C | Sa growth 42C second temp | GIV Gai3 FP | HCMV UL50-53 inh
- CN1CCOc2cc(S(=O)(=O)NCc3csc(-c4cccs4)n3)ccc21
    102 | 83 | 103 | -20
- COc1ccc(C2Nc3ccccc3C(=O)N2c2ccc(C)cc2)cc1Cn1cc([N+](=O)[O-])cn1 (stereo not drawn)
    . | . | 104 | -21
- CCOC(=O)c1[nH]c(C)c(S(=O)(=O)Nc2ccc(S(N)(=O)=O)cc2)c1C
    . | . | 104 | -23
- Cn1c(=NC(=O)C2CCCCN2S(=O)(=O)c2cccc3nsnc23)sc2ccccc21 (stereo not drawn)
    87 | 98 | . | -48
- CCOC(=O)CCc1c(C)nc2nc(CNc3ccc(Cl)cc3)[nH]n2c1=O
    . | . | 103 | -26
- CCCCSCCCNC(=O)C1CCN(Cc2nc(-c3cccc(Br)c3)oc2C)CC1
    107 | 83 | 104 | -4
- CCN1CCN(CCCNC(=O)C2CCCN(C(=O)c3[nH]c(C)c(C(=O)OC(C)C)c3C)C2)CC1 (stereo not drawn)
    . | . | 99 | -18

# Continuation.
# Sequence of screens: Sa growth 42C | Sa growth 42C second temp | GIV Gai3 FP | HCMV UL50-53 inh
- COc1cccc(NC(=O)CN2C(=O)C(C)CSc3ccc(S(=O)(=O)N4CCCC4)cc32)c1 (stereo not drawn)
    . | . | 102 | 13
- O=C(N/N=C1\CCc2ccccc21)c1ccc(O)cc1
    110 | 92 | . | -18
- Cc1cn(C)c(CC(=O)Nc2ccc(F)cc2Cl)c1C(=O)O
    80 | 94 | 100 | .
- O=C(NCc1ccccc1CN1CCOCC1)c1n[nH]c(=O)c2ccccc12
    114 | 88 | . | -9
- O=C(c1cc(-c2ccccc2)n[nH]1)N1CCN(c2ccc(N3CCOCC3)nn2)CC1
    . | . | 103 | -21
- Cc1ccc(NC(=O)COc2nc3nncn3nc2C)cc1
    106 | 97 | . | 9
- CCCNc1ncnc2c1c(-c1ccccc1)cn2-c1ccccc1
    75 | 56 | 104 | .
- CCOC(=O)c1c(NC(C)=O)sc(Br)c1-c1ccc(C)cc1
    86 | 101 | . | 29
- CC1(C)C=C(/C=C/c2ccccc2F)NC(=S)N1
    75 | 56 | . | -21
- CCC(=O)n1nc(-c2ccco2)nc1SCc1ccccc1
    95 | 89 | 107 | -12
- CN(C)c1ccnc(NCc2ccccc2)c1C#N
    81 | 75 | 99 | -7
- CC1=NN(c2ncnc3sc4c(c23)CCCC4)C(=O)C1
    99 | 85 | 105 | -41
- Cc1c(N)cc(C(F)(F)F)cc1C(F)(F)F
    97 | 94 | 101 | -3

# Source: PubChem (ICCB-Longwood Screening Facility, Harvard Medical School)
